Assay outcomes from PubChem.
miR-21 reporter – miR-21 reporter, rising signal. 340,000 tested, under 10 active. HeLa miR-21 FLuc reporter, luciferase, 48 h. Potency, µM (top dose mostly 38.3 µM), for inactives: top-dose reporter change, positive = more light; active = well fitted rising curve with a large enough effect; inconclusive = small, poorly fitted or top-dose-only effect; inactive = no such curve, though single readings can be large or run the other way;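 further: % of control where 0% means no effect; miR-21 action dims this reporter so a rising signal means less miR-21 action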
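HeLa miR-21-FLuc reporter line, endogenous miR-21; 2000 cells/well in DMEM/10% FBS; compound titration up to ~40uM final, 48 h, 37 degree Celsius; luciferase detection reagent, 15 min lysis, CCD luminescence.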
Rango release inh – inhibitors of RanGTP-induced Rango-importin beta complex dissociation; 340,000 tested, 0.071% active; Potency, µM (doses to about 46.1 µM), for the others: top-dose activity change, negative = inhibition; Biochemical FRET Rango-importin beta, RanGTP-induced dissociation; active means falling FRET ratio curve, often poorly fitted, with flat reads before Ran was added; inconclusive means other falling curves, or compound fluorescence or quenching; inactive means flat or rising ratio curve;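 further: potency means the concentration at half of the fitted maximal effect; % of control where 0% means no effect; nearly all actives have a fitted effect of over 45% in size; -100% = wells without RanGTP and RCC1; the record marks most hits as doubtful in a second field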
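Recombinant Rango FRET biosensor (EYFP–snurportin 1 IBB–cerulean CFP10) at 0.1 uM premixed with 0.25 uM importin beta in PBS, 1 mM DTT, 0.02% Tween-20, 0.1% BSA. Compound added 5 min; RanGTP-RCC1 (0.6 uM Ran, 2 mM GTP, 0.2 uM RCC1) then triggers release, read at 45 min.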
GLA inh pH 4.5 – blocks human alpha-galactosidase A at pH 4.5. 230,000 tested, under 10 active. P06280. activity change, negative = inhibition, % at 105 µM. purified enzyme, 4-MU-alpha-Gal fluorescence, pH 4.5; inconclusive = small, poorly fitted or top-dose-only inhibition, or a rising curve; inactive = flat fitted curve, though single readings scatter; no compound was filed as active;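 further: 0% = full activity with enzyme and -100% = basal without enzyme; dose as in the result columns while the protocol names 77 µM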
Target sequence (P06280 whole entry, looked up): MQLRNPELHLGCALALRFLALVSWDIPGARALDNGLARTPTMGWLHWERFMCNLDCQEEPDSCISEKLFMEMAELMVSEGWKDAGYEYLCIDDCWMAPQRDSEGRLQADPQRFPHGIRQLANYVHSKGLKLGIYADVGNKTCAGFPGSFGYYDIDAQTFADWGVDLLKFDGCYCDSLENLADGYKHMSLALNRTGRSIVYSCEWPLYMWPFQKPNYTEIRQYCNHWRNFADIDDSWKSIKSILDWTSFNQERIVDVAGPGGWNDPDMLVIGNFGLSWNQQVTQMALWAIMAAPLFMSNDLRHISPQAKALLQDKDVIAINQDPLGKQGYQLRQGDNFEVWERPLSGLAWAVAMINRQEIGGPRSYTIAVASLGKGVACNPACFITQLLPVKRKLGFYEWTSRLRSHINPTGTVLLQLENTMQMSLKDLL
Rango complex inh – inhibitors of Rango-importin beta complex formation; Q14974; Rango CFP/YFP FRET sensor + importin beta, 45 min; Potency, µM (top dose mostly 92.2 µM), for the others: at the highest dose inhibition of complex formation; 340,000 tested, 0.031% active; active = rising FRET ratio curve, often small or poorly fitted; inconclusive = mostly compound fluorescence or quenching in the first reads; inactive = flat curves in all reads;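 further: potency means the concentration at half of the fitted maximal effect; 0% = DMSO wells and 100% = buffer wells lacking importin beta; nearly all actives have a fitted effect of over 15% in size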
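FRET biosensor Rango (snurportin 1 IBB between N-terminal EYFP and C-terminal Cerulean), 50 nM in PBS/1 mM DTT/0.02% Tween-20/0.1% BSA, preincubated 5 min RT with compound; 0.125 microM importin beta added, 45 min RT, CFP/YFP FRET ratio read.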
* hit, by the source's call; ? = inconclusive; · = not tested or not shown; & = joins results of further samples.

SMILES	miR-21 reporter	Rango release inh	GLA inh pH 4.5	Rango complex inh
CCOC(=O)C1CCN(C2=NC(=O)/C(=C/c3ccccc3OC)S2)CC1	-1%	1%	·	?
Cc1cc(Br)ccc1NC(=O)CN1C(=O)C2C3CC(c4ccccc4)C(C3)C2C1=O (stereo not given)	?	6%	-3	-2.2%
CCOc1ncccc1C(=O)Nc1ccc(S(=O)(=O)NC2=NCCCCC2)cc1	-6%	-3%	-1	-4.3%
COc1ccc(CN2CCN(C3CCC3)CC2CCO)c(C)c1C (stereo not given)	2%	-5%	·	-1.5%
COc1ccc(N(CC(=O)NCCC2=CCCCC2)S(C)(=O)=O)cc1	-15%	1%	-1	-2.2%
O=C(Cc1ccccc1)NCCc1cnc[nH]1	4%	6%	·	-4.0%
C#CCOCCOCCOCCNc1nc(N2CCN(C(=O)[C@H](CCC(=O)O)n3cc([C@@H](N)CCCCN)nn3)CC2)nc(N2CCN(C(=O)[C@H](CCC(=O)O)n3cc([C@@H](N)CCCCN)nn3)CC2)n1	·	10%	·	3.0%
CC(C)=C1SC(N2CCCCC2)=NC1=O	-7%	6%	-5	0.6%
Cc1cccc(C(=O)NCCCNC(=O)c2ccc(C)nc2)c1	0%	0%	·	-1.2%
CC(OC(=O)CSCC(=O)Nc1ccc(Cl)cc1)C(=O)N(C)Cc1ccccc1 (stereo not given)	·	31%	·	-1.0%

Brought forward from above: seven compounds, followed by the next part.
SMILES	miR-21 reporter	Rango release inh	GLA inh pH 4.5	Rango complex inh
COc1ccc(CN2CCN(C3CCC3)CC2CCO)c(C)c1C (stereo not given)	2%	-5%	·	-1.5%
COc1ccc(N(CC(=O)NCCC2=CCCCC2)S(C)(=O)=O)cc1	-15%	1%	-1	-2.2%
O=C(Cc1ccccc1)NCCc1cnc[nH]1	4%	6%	·	-4.0%
C#CCOCCOCCOCCNc1nc(N2CCN(C(=O)[C@H](CCC(=O)O)n3cc([C@@H](N)CCCCN)nn3)CC2)nc(N2CCN(C(=O)[C@H](CCC(=O)O)n3cc([C@@H](N)CCCCN)nn3)CC2)n1	·	10%	·	3.0%
CC(C)=C1SC(N2CCCCC2)=NC1=O	-7%	6%	-5	0.6%
Cc1cccc(C(=O)NCCCNC(=O)c2ccc(C)nc2)c1	0%	0%	·	-1.2%
CC(OC(=O)CSCC(=O)Nc1ccc(Cl)cc1)C(=O)N(C)Cc1ccccc1 (stereo not given)	·	31%	·	-1.0%
O=c1c2ccccc2[nH]c(=S)n1-c1cccc(S(=O)(=O)N2CCCC2)c1	-4%	-4%	3	1.7%
Cc1ccc2sc(=O)[nH]c2c1	0%	8%	4	-1.6%
Fc1ccc(-c2nnc(-c3ccc4ccccc4c3)o2)cc1	·	-6%	·	-4.6%
COc1ccc(CN(CC2CCCO2)S(=O)(=O)c2ccc(C(=O)O)cc2)cc1OC (stereo not given)	-9%	39%	-1	-3.0%
O=C(Nc1ccccc1C(=O)N1CCOCC1)c1ccco1	1%	5%	-12	3.4%
CCOc1ccc2nc(SC(CC)C(=O)Nc3cc(C)on3)sc2c1 (stereo not given)	-9%	1%	9	0.8%
Cc1cccc(NC(=O)COC(=O)C2C3CC4OC(=O)C2C4C3)c1C (stereo not given)	0%	-2%	·	4.4%
CN1CCC(=NNC(=O)c2ccco2)CC1	-25%	-10%	8	6.4%
CCCOC(=O)c1cccc(Nc2nc(-c3cccnc3)nc3ccccc23)c1	23%	15%	-5	-3.4%
Cn1c(C(=O)NCCOc2ccccc2Cl)cc(=O)n(C)c1=O	-3%	10%	0	-4.1%
COc1ccc(N(C(=O)c2cccnc2)S(=O)(=O)c2ccc3c4c(cccc24)C(=O)N3C)cc1	1%	?	-2	?
O=C(Nc1ccc2c(c1)CCC2)c1ccc(Cl)nc1	-41%	11%	3	-1.3%
COC(=O)CSc1ncc(S(=O)(=O)c2ccccc2)c(=O)[nH]1	-2%	0%	·	-0.2%
O=C(CSc1n[nH]c(-c2ccccc2)n1)N1CCCC1	-27%	14%	·	2.8%
CCN(CC)CCN(Cc1cc2cccc(C)c2[nH]c1=O)C(=S)Nc1ccccc1	-1%	57%	-10	-1.0%
CS(=O)(=O)Nc1cccc(-c2cnc3ccccc3n2)c1	-51%	39%	·	8.6%
O=C(O)c1ccc(N2C(=O)Nc3ccccc3N2O)cc1	-16%	-5%	3	1.0%
Cn1c(Cc2cccs2)n[nH]c1=S	-1%	-3%	4	1.2%
Cn1c(=O)c2c(-c3ccccc3)n(Cc3cccnc3)cc2n(C)c1=O	-2%	2%	-4	1.5%
O=C(CCC1CCCC1)Nc1ccc(C(=O)NCc2cccnc2)cc1	?	5%	2	-1.8%
Cc1onc(-c2c(Cl)cccc2Cl)c1C(N)=O	-9%	-20%	-4	-1.2%
CC(OC(=O)c1cc(=O)[nH]c2ccccc12)C(=O)NCc1ccccc1 (stereo not given)	·	14%	·	-0.9%
O=c1[nH]cc(S(=O)(=O)N2CCCc3ccccc32)c(=O)[nH]1	·	10%	·	4.7%
O=C(O)c1ccc(N=C2c3ccccc3-c3ccccc32)cc1	·	24%	·	9.8%
Cn1c(=O)oc2cc(S(=O)(=O)N3CCC(C(=O)Nc4ccc(OC(F)(F)F)cc4)CC3)ccc21	1%	3%	7	-2.1%
O=C(CCN1CCOCC1)c1ccc(N2CCCCC2)cc1	·	11%	·	-0.1%
O=C(NCCC1=CCCCC1)NC12CC3CC(CC(C3)C1)C2	-38%	-4%	-5	-0.1%
Cc1ccc(NC(=O)NNC(=O)COc2ccc3ccccc3c2)cc1	0%	-5%	·	-1.4%
COc1ccc(NC(=O)CS(=O)(=O)Cc2ccccc2)c([N+](=O)[O-])c1	-8%	4%	·	4.9%
Cc1ccc(C(=O)Cn2cnc3ccccc3c2=O)cc1C	-56%	-5%	1	2.0%
Cc1sc(NC(=O)CSc2nnnn2C)c(C#N)c1C	-1%	-9%	-18	-0.2%
CCCN1CNC(=S)N(c2ccccc2OCC)C1	-5%	1%	-6	0.9%
Cc1cc(C)nc(SCCS(=O)Cc2ccc(Cl)cc2)n1 (stereo not given)	-9%	-5%	-4	0.6%
COc1cc(CC(NC(C)=O)C(=O)NC2CCN(C(=O)Nc3ccc(C)cc3)CC2)cc(OC)c1 (stereo not given)	0%	-2%	·	-0.9%
NS(=O)(=O)c1ccc(CCNC(=O)c2ccc[nH]c2=S)cc1	-1%	-1%	·	-2.4%
COc1ccc(C2Oc3ccccc3C3=C2C(c2cccs2)n2ncnc2N3)cc1 (stereo not given)	22%	-30%	2	?
CN(C)C(=S)Nc1cccc(-c2n[nH]c(=S)o2)c1	-3%	7%	-7	0.1%
O=C(C1=C[C@@H](c2ccc(C(F)(F)F)cc2)C[C@@H](OCCCCO)O1)N1CCCCCCC1	·	-18%	·	1.6%
COc1ccc(CC(=O)Nc2cccc(SC)c2)cc1OC	18%	-12%	4	1.4%
CCCCNc1c(-c2ccc(SC3CCCCC3)c(OC)c2)nc2ccc(Cl)cn12	·	?	·	?
O=c1oc2ccccc2c2nccnc12	-4%	-16%	-3	10%
C=CCNC(=O)NC(=O)COC(=O)CC(NC(N)=O)c1ccc(Cl)cc1 (stereo not given)	-4%	1%	14	0.3%
O=C(NC1CCN(Cc2ccc3ccccc3c2)CC1)c1ccccc1	-7%	14%	·	-6.1%
O=C(COC(=O)CCC(=O)c1ccc(F)cc1)NCc1ccco1	-3%	-9%	3	-0.3%
COC(=O)c1c(C)oc(C)c1S(=O)(=O)NCc1cccs1	-5%	0%	-8	2.0%
Cc1cc(OCCCCCN2CCCC2)ccc1Cl	-10%	-2%	-14	-3.3%
O=C(NCCN1CCN(Cc2ccccc2)CC1)Nc1cc(Cl)cc(Cl)c1	6%	6%	-2	-5.1%
CCc1cc(=O)oc2c3c(cc(OCC(=O)NCc4ccccn4)c12)OC(C)(C)CC3	-8%	-3%	·	0.1%
CC(C)(C)OC(=O)N1CCC(CNC(=O)c2ccc(F)cc2F)CC1	2%	-12%	1	-0.3%
CCc1ccccc1N1C(=O)[C@@H]2Cc3ccccc3CN2C1=O	2%	0%	3	3.1%

(cont.)
SMILES	miR-21 reporter	Rango release inh	GLA inh pH 4.5	Rango complex inh
CC(C)(C)NS(=O)(=O)c1ccc2[nH]c3c(c2c1)CCCCC3	11%	1%	·	2.9%
C=CCSc1nc(O)c(C2OC(=O)c3c2ccc(OC)c3OC)c(=O)n1-c1ccccc1 (stereo not given)	0%	8%	-9	-3.7%
O=C(O)CCCc1nc(-c2ccccc2)no1	4%	2%	5	0.0%
CCOc1ccc2nc(NC(=O)C3(C)CC3(Br)Br)sc2c1 (stereo not given)	·	-11%	·	-5.6%
Cc1ccnc(NC(=O)CCC(=O)N(CC(=O)NCc2ccccc2)c2ccc3c(c2)OCO3)c1	-7%	5%	5	-0.3%
CC(C)(C)NC(=O)C(c1cccs1)N(C(=O)C(=O)NC1CCCC1)c1ccccc1F (stereo not given)	-13%	-18%	-4	6.4%
COCCNC(=O)c1cc(-c2cccnc2)nc2ccc(Br)cc12	-1%	19%	1	2.6%
Cn1c(=O)c2[nH]c(SCCN3CCOCC3)nc2n(C)c1=S	·	20%	·	0.9%
COc1ccc(NS(=O)(=O)c2ccc(NC(=O)c3cnn4c(C(F)F)cc(-c5ccc(C)cc5)nc34)cc2)cc1	-2%	·	-9	·
COc1ccc(-c2ccc(SCc3ccccn3)nn2)cc1OC	-29%	-8%	1	0.6%
CCOc1ccccc1NC(=O)N1CCCC1C(=O)Nc1ccc(NC(C)=O)cc1 (stereo not given)	-4%	1%	7	-1.6%
COc1ccc(NC(=O)C2CCCN(c3cnccn3)C2)c(OC)c1 (stereo not given)	-4%&0%	-2%	·	-2.4%
CC(=O)NN1C(=O)c2ccc3c4c(ccc(c24)C1=O)C(=O)N(NC(C)=O)C3=O	20%	-6%	·	4.3%
COC(=O)CC1C(=O)NCCN1C(=O)CSc1nc2ccccc2o1 (stereo not given)	0%	-7%	-5	-1.3%
COc1ccccc1N1CCN(Cc2nc(-c3ccc(F)cc3)oc2C)CC1	0%	-9%	4	-2.5%
O=Cc1ccc(Oc2cc(-c3ccccc3)nc(-c3ccccc3)n2)cc1	-4%	20%	-3	6.2%
CC(NC(=O)COC(=O)/C=C/c1ccc([N+](=O)[O-])cc1)c1ccccc1 (stereo not given)	-7%	-13%	-1	-2.0%
CCn1c(SCC(=O)Nc2cccc(NC(=O)c3ccco3)c2)nnc1-c1cccs1	4%	-6%	3	14%
CS(=O)(=O)N(CC(=O)NCc1ccncc1)Cc1ccc(Cl)cc1	-2%	7%	2	-0.2%
CC(C)Cc1nnc(NC(=O)CCC(=O)N2CCN(Cc3ccc(Cl)cc3)CC2)s1	9%	8%	·	-0.6%
CC(NC(=O)Cn1c(=O)[nH]c2ccsc2c1=O)C12CC3CC(CC(C3)C1)C2 (stereo not given)	-4%	1%	-2	0.2%
CC(C)(C)c1cnnn1-c1ccc(-c2csc(N)n2)cc1	-18%	-5%	-10	-1.1%
Cc1ccc(C)c(NC(=S)N2CCCC2)c1	-1%	-4%	·	-3.7%
Cn1c(=O)c2c(nc(NCCc3ccccc3)n2Cc2ccc(F)cc2)n(C)c1=O	18%	-19%	1	3.0%
O=c1cc(O)nc(SCc2ccc(Cl)cc2)[nH]1	-3%	30%	-6	-0.3%
Cc1cccc(C(=O)Nc2ccc(NC(=O)c3ccccc3)cc2)c1	-8%	-8%	·	4.1%
Cc1cccc2[nH]c(CN(C)Cc3nc(CC4CC4)no3)nc12	1%	1%	-6	0.0%
COc1ccc(-n2nc(C(N)=O)nc2-c2ccccc2)cc1	0%	-28%	·	0.2%
Cc1ccccc1C(=O)N1CCN(c2ccccn2)CC1	-1%	-8%	-1	0.9%
O=C(Nc1ccc(-c2ccc3nncn3n2)cc1)C1CCCC1	-43%	?	2	-1.7%
O=C(CN(c1ccc(F)cc1)S(=O)(=O)c1ccc2c(c1)OCCO2)Nc1ccc2c(c1)OCO2	10%	11%	-2	-5.7%
O=C(NCCO)C(O)C(O)C(=O)NCCO (stereo not given)	-23%	-3%	-5	0.4%
O=C(NCCCn1ccnc1)c1cc2nc(-c3ccc(Br)cc3)cc(C(F)(F)F)n2n1	5%	-11%	-8	?

Not all compounds are listed. The share of hits here may be higher or lower than overall.
